Vaccinia inh – Vaccinia orthopox stage-specific inhibition | 0.01% of 89,000 active | activity change (mCherry), % (no concentration beside the values) | AID 1053133 | Vaccinia-infected cells, mCherry/Venus stage reporter fluorescence; active compounds read low; some inactives read as strong as hits;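 active means mCherry past -33% and 40 or more points under the early reporter, replicates agreeing; inconclusive means past -33% without that gap or agreement; tested in A549 cells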;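 further: scaled between vehicle wells and reference inhibitor wells; 23 nL library stock went into each well; one replicate is shown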
Vaccinia inh Venus – recorded beside Vaccinia inh, whose call it bears; activity change (Venus), %; measured here: Venus reporter, other viral stage;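 negative = less Venus signal; first of two replicates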
Numbers without * were called inactive; ? = inconclusive; . = not tested or not shown; & = joins results of further samples. Some of the compounds tested, so the mix of outcomes need not match the whole.

Compound,Vaccinia inh,Vaccinia inh Venus
CN(C)CC#Cc1ccc([C@@H]2[C@@H](CO)N3CCCCN(C(=O)CN(C)C)C[C@H]23)cc1,6.7,-14.7
COCC(=O)Nc1ccc2c(c1)OC[C@H](C)N(C(=O)CC1CC1)C[C@H](C)[C@H](OC)CN(C)C2=O,9.3,8.3
C[C@@H]1CN([C@H](C)CO)C(=O)c2cc(NC(=O)Nc3cccc4ccccc34)ccc2O[C@@H]1CN(C)Cc1ccc(C(=O)Nc2ccccc2N)cc1,26.8,9.8
CC(=O)N1[C@H](C(=O)NCc2ccccc2)[C@@H](CO)[C@@H]2Cn3c(cccc3=O)[C@@H]21,2.6,1.7
COc1ccc2c3c([nH]c2c1)[C@H](CO)N(C(=O)C1CCC1)CC31CCN(S(C)(=O)=O)CC1,16.5,8.2
C[C@H](CO)N1C[C@H](C)[C@@H](CN(C)C(=O)C2CCCCC2)Oc2cc(C#CC(C)(C)O)ccc2S1(=O)=O,-3.6,-2.5
C[C@H](CO)N1C[C@H](C)[C@@H](CN(C)C)Oc2ncc(-c3cccc(F)c3)cc2C1=O,17.2,17.2
C[C@@H]1CN([C@@H](C)CO)C(=O)Cc2cc(NC(=O)Nc3ccc(C(F)(F)F)cc3)ccc2O[C@@H]1CN(C)Cc1ccc2c(c1)OCO2,?,.
C[C@@H]1CN([C@H](C)CO)C(=O)c2cccc(NC(=O)c3nc4ccccc4s3)c2O[C@H]1CN(C)C(=O)Nc1ccc(C(F)(F)F)cc1,-0.8,3.1
CCCC#Cc1cnc2c(c1)C(=O)N([C@H](C)CO)C[C@@H](C)[C@H](CN(C)C(=O)CN1CCOCC1)O2,6.6,-9.0
O=C(C1CCCCC1)N1CC2(C1)[C@H](c1ccccc1)[C@@H](CO)N2C(=O)c1cccnc1,12.2,13.8
Cc1ccccc1-c1cnc2c(c1)C(=O)N([C@@H](C)CO)C[C@H](C)[C@H](CN(C)C(=O)CN(C)C)O2,11.1,16.2
CN1[C@H](C(=O)N2CCCCC2)[C@@H](CO)[C@@H]2Cn3c(ccc(/C=C/c4ccccc4)c3=O)[C@@H]21,-11.4,-1.0
C[C@H]1CN([C@@H](C)CO)S(=O)(=O)c2ccc(/C=C/c3ccccc3)cc2O[C@H]1CN(C)CC1CC1,?,.
CCC(=O)N1CC(=O)N2[C@H](C1)[C@H](c1ccc(C#Cc3cccc(OC)c3)cc1)[C@@H]2CO,?,.
COc1ccc(CNC(=O)C[C@H]2C[C@@H]3c4cc(NC(=O)CN(C)C)ccc4O[C@@H]3[C@@H](CO)O2)cc1,1.8,-6.8
CN1C(=O)c2cc(NC(=O)C3CCCCC3)ccc2OC[C@@H]2O[C@@H](CC(=O)NC3CCCC3)CC[C@H]21,17.5,11.0
C[C@@H]1CN([C@@H](C)CO)C(=O)c2cccc(NC(=O)NC3CCCCC3)c2O[C@@H]1CN(C)S(=O)(=O)c1ccc(Cl)cc1,?,.
O=C(Nc1cccc(F)c1)N1C[C@H]2[C@@H](c3ccccc31)[C@@H](CO)N2C(=O)c1ccccc1F,10.2,7.7
C[C@@H]1CCCCO[C@@H](CN(C)C(=O)c2ccncc2)[C@H](C)CN([C@H](C)CO)C(=O)c2cc(NS(C)(=O)=O)ccc2O1,17.5,10.2
CC(C)NC(=O)N(C)C[C@@H]1Oc2ncc(-c3ccc(C(=O)N(C)C)cc3)cc2C(=O)N([C@@H](C)CO)C[C@@H]1C,9.4,4.9
C[C@@H]1CN([C@H](C)CO)C(=O)Cc2cc(NS(=O)(=O)c3ccccc3)ccc2O[C@@H]1CN(C)CC1CC1,-16.8,-21.6
CC=Cc1ccc2n(c1=O)C[C@H]1[C@H](CO)[C@@H](C(=O)N3CCCCC3)N(CC3CC3)[C@@H]21 (mixture of isomers),14.5,13.8
C[C@@H]1CN([C@@H](C)CO)C(=O)c2cc(NC(=O)Cc3ccccc3)ccc2O[C@H]1CN(C)S(=O)(=O)c1cn(C)cn1,9.3,10.9
C[C@@H]1CN([C@@H](C)CO)C(=O)CCCn2cc(nn2)CO[C@@H]1CN(C)Cc1ccc(O)cc1,12.4,7.1
C[C@H](CO)N1C[C@H](C)[C@H](CN(C)C(=O)NC2CCCCC2)Oc2c(NC(=O)c3cnccn3)cccc2C1=O,15.0,13.1
COc1ccccc1-c1cnc2c(c1)C(=O)N([C@@H](C)CO)C[C@@H](C)[C@@H](CN(C)C(=O)CC1CC1)O2,2.5,7.7
C[C@@H]1CCCCO[C@@H](CN(C)S(=O)(=O)c2ccccc2)[C@H](C)CN([C@@H](C)CO)C(=O)c2cc(NC(=O)Nc3cccc4ccccc34)ccc2O1,20.3,7.2
C[C@@H]1CN([C@H](C)CO)C(=O)c2cccc(NS(C)(=O)=O)c2O[C@H]1CN(C)S(=O)(=O)c1cccs1,33.8,21.4
COCC#Cc1cnc2c(c1)C(=O)N([C@H](C)CO)C[C@H](C)[C@@H](CN(C)C(=O)c1cccnc1)O2,13.9,9.2
CCS(=O)(=O)NCC[C@@H]1CC[C@@H](NC(=O)C2CCC2)[C@@H](CO)O1,6.3,6.9
C[C@@H]1CN([C@@H](C)CO)C(=O)c2cc(NC(=O)c3ccncc3)ccc2O[C@@H](C)CCCCO[C@@H]1CN(C)Cc1ccncc1,23.2,-2.1
Cc1ccc(S(=O)(=O)N[C@H]2CC[C@H](CCn3cc(-c4cccc(F)c4)nn3)O[C@H]2CO)cc1,0.4,-2.6
CNC[C@H]1Oc2ccc(NC(=O)NC(C)C)cc2C(=O)N([C@@H](C)CO)C[C@H]1C,15.4,13.0
N#C[C@@H]1[C@H](c2ccccc2)[C@H](CO)N1C(=O)CN1CCOCC1,4.5,7.3
C[C@H](CO)N1C[C@H](C)[C@@H](CN(C)C(=O)Nc2ccc(C(F)(F)F)cc2)OCCCC[C@H](C)Oc2ccc(NC(=O)NC3CCCCC3)cc2C1=O,-11.2,-1.8
CO[C@H]1CN(C)C(=O)c2ccc(NS(=O)(=O)c3cccc(F)c3)cc2OC[C@@H](C)NC[C@@H]1C,20.7,17.2
C[C@H]1CN([C@@H](C)CO)C(=O)Cc2cc(N(C)C)ccc2O[C@H]1CN(C)C(=O)NC1CCCCC1,18.0,4.5
O=C(C[C@H]1CC[C@@H](NC(=O)c2ccccc2)[C@H](CO)O1)NCc1ccc(Oc2ccccc2)cc1,-1.3,9.3
C[C@@H]1CN([C@H](C)CO)C(=O)c2cc(NC(=O)Nc3ccc4c(c3)OCO4)ccc2O[C@@H](C)CCCCO[C@H]1CN(C)Cc1ccc2c(c1)OCO2,?,.
CN(C[C@@H]1N[C@H](CO)[C@@H]1c1ccc(C2=CCCC2)cc1)S(C)(=O)=O,4.9,8.8
CCOC(=O)N(C)C[C@@H]1OCc2cnnn2CCCC(=O)N([C@H](C)CO)C[C@@H]1C,16.1&-2.0,6.7&3.4
C[C@H]1CN([C@@H](C)CO)C(=O)CCCn2nncc2CO[C@@H]1CN(C)S(=O)(=O)c1ccc(Oc2ccccc2)cc1,1.0,0.4
C[C@H]1CN([C@@H](C)CO)C(=O)c2cc(NC(=O)CCCCCC(=O)Nc3ccccc3N)ccc2O[C@@H]1CN(C)Cc1ccncc1,1.3,10.2
CC=Cc1ccc2n(c1=O)C[C@@H]1[C@@H](CO)[C@H](C(=O)NCCc3cn(C)cn3)[C@H]2N1C(=O)C1CCC1 (mixture of isomers),19.1,11.3
COc1ccccc1S(=O)(=O)N[C@@H]1C=C[C@H](CC(=O)N2CCN(C)CC2)O[C@H]1CO,4.5,11.3
CO[C@@H]1CN(C)C(=O)c2ccc(NC(=O)Nc3cccc(F)c3)cc2OC[C@H](C)N(C(=O)Nc2c(C)noc2C)C[C@@H]1C,16.7,7.1
C[C@@H]1CN([C@H](C)CO)S(=O)(=O)c2ccc(C3=CCCC3)cc2O[C@@H]1CN(C)Cc1ccccn1,-14.0,-14.6

(continued)
Molecule	Vaccinia inh	Vaccinia inh Venus
O=C(NC1CCCC1)N1CC(=O)N2[C@@H](CO)[C@H](c3ccc(-c4cccc(F)c4)cc3)[C@@H]2C1	13.4	13.3
CO[C@@H](CN(C)Cc1cc(F)ccc1F)[C@H](C)CN([C@H](C)CO)S(=O)(=O)c1ccc(F)cc1	-11.0	-12.2
C[C@H](CO)N1C[C@H](C)[C@H](CN(C)Cc2ccc(C(F)(F)F)cc2)Oc2ccc(NS(=O)(=O)c3ccccc3)cc2CC1=O	-3.1	-3.9
COc1cccc(S(=O)(=O)N(C)C[C@@H]2Oc3ncc(C#CCN(C)C)cc3C(=O)N([C@H](C)CO)C[C@@H]2C)c1	-20.0&-3.5	-18.5&-2.9
CNC(=O)C[C@@H]1CC[C@@H]2[C@H](COC[C@H](O)CN2S(=O)(=O)c2cccc(Cl)c2)O1	14.3	15.8
C[C@@H]1CN([C@H](C)CO)C(=O)c2cc(N(C)C)ccc2O[C@@H]1CN(C)S(=O)(=O)c1cn(C)cn1	14.1	13.6
C[C@H]1CN([C@@H](C)CO)S(=O)(=O)c2ccc(C#Cc3ccncc3)cc2O[C@H]1CN(C)C(=O)C1CCC1	-34.7	-15.8
COc1ccc(S(=O)(=O)N[C@H]2CC[C@H](CC(=O)N3CCC(Cc4ccccc4)CC3)O[C@@H]2CO)cc1	?	.
CCCN1CC2(C1)CN(C(=O)CN1CCOCC1)[C@H](CO)c1c2c2ccc(OC)cc2n1C	-1.5	-4.7
O=C(C[C@H]1C=C[C@H](NC(=O)Nc2cc(F)ccc2F)[C@H](CO)O1)NCc1ccccn1	1.3	6.1
O=C1O[C@H](c2ccccc2)[C@H](c2ccccc2)N2[C@H]1[C@@H](C(=O)N1CCN(c3ncccn3)CC1)[C@]1(C(=O)Nc3ccccc31)[C@H]2c1ccc(O)cc1	-14.0	-17.4
C[C@@H]1CN([C@@H](C)CO)C(=O)c2cc(NC(=O)Cn3cnnn3)ccc2O[C@@H]1CN(C)Cc1ccccc1	9.3	12.0
CO[C@H](CN(C)S(=O)(=O)c1ccc(C)cc1)[C@@H](C)CN(Cc1ccccc1Cl)[C@@H](C)CO	-16.8	-9.4
C[C@H]1CN([C@@H](C)CO)C(=O)c2cc(C#Cc3ccc(F)cc3)cnc2O[C@H]1CN(C)C(=O)Nc1ccc(F)cc1	31.3	3.6
C[C@@H]1CN([C@@H](C)CO)C(=O)c2cc(C#Cc3ccccc3F)cnc2O[C@@H]1CN(C)C	?	.
C[C@@H]1CCCCO[C@@H](CN(C)S(=O)(=O)c2ccccc2)[C@H](C)CN([C@H](C)CO)C(=O)c2cc(NC(=O)Nc3ccc(C(F)(F)F)cc3)ccc2O1	-8.1	1.1
C[C@H](CO)N1C[C@H](C)[C@@H](CN(C)C(=O)C2CC2)Oc2cc(C#Cc3cccnc3)ccc2S1(=O)=O	3.9	3.6
CCC(=O)N1CC2(C1)[C@@H](c1ccccc1)[C@H](CO)N2C(=O)c1cccnc1	3.0	2.7
O=C(C1CCOCC1)N1CC(=O)N2[C@H](CO)[C@H](c3ccc(-c4ccccc4F)cc3)[C@H]2C1	8.3	1.1
COc1ccc(NC(=O)Nc2ccc3c(c2)[C@@H]2C[C@@H](CC(=O)NCC4CC4)O[C@H](CO)[C@@H]2O3)cc1	11.1	6.4

Four entries from above, with each value named.
C[C@H](CO)N1C[C@H](C)[C@H](CN(C)Cc2ccc(C(F)(F)F)cc2)Oc2ccc(NS(=O)(=O)c3ccccc3)cc2CC1=O
  Vaccinia inh: -3.1; Vaccinia inh Venus: -3.9

COc1cccc(S(=O)(=O)N(C)C[C@@H]2Oc3ncc(C#CCN(C)C)cc3C(=O)N([C@H](C)CO)C[C@@H]2C)c1
  Vaccinia inh: -20.0&-3.5; Vaccinia inh Venus: -18.5&-2.9

CNC(=O)C[C@@H]1CC[C@@H]2[C@H](COC[C@H](O)CN2S(=O)(=O)c2cccc(Cl)c2)O1
  Vaccinia inh: 14.3; Vaccinia inh Venus: 15.8

C[C@@H]1CN([C@H](C)CO)C(=O)c2cc(N(C)C)ccc2O[C@@H]1CN(C)S(=O)(=O)c1cn(C)cn1
  Vaccinia inh: 14.1; Vaccinia inh Venus: 13.6

The list goes on:
Molecule	Vaccinia inh	Vaccinia inh Venus
O=C1c2ccccc2[C@@]2(Cc3ccccc3N(Cc3ccccc3)C2=O)[C@H](c2ccc(CO)cc2)N1C1CCCCC1	11.3	5.4
C[C@@H]1CN([C@@H](C)CO)C(=O)c2cccc(NC(=O)c3ccc(-c4nccs4)cc3)c2O[C@H]1CN(C)S(C)(=O)=O	42.1	17.7
C[C@H]1CN([C@@H](C)CO)C(=O)c2cccc(NS(C)(=O)=O)c2O[C@H]1CN(C)C(=O)Nc1ccc2c(c1)OCO2	13.4	10.9
C[C@H]1CN([C@@H](C)CO)C(=O)Cc2cc(NC(=O)C3CC3)ccc2O[C@H]1CN(C)C	17.3	9.8
C[C@@H]1CN([C@@H](C)CO)C(=O)CCCn2nncc2CO[C@@H]1CN(C)Cc1ccccc1C(F)(F)F	?	.
O=S(=O)(NCC[C@@H]1CC[C@H](NS(=O)(=O)c2ccccc2Cl)[C@H](CO)O1)c1ccc(F)cc1	-12.6	-8.8
C[C@@H]1CN([C@H](C)CO)C(=O)c2cccc(NC(=O)C3CCCCC3)c2O[C@H]1CN(C)C(=O)Nc1ccc2c(c1)OCO2	14.0	10.6
C[C@H](CO)N1C[C@H](C)[C@H](CN(C)C(=O)Nc2ccc(F)cc2)Oc2c(NC(=O)Nc3ccc(F)cc3)cccc2C1=O	?	.
CO[C@@H]1CN(C)C(=O)c2ccc(NS(=O)(=O)c3ccc(Cl)cc3)cc2OC[C@@H](C)N(C(=O)Cc2cccnc2)C[C@H]1C	10.1	13.3
COCC(=O)Nc1ccc2c(c1)OC[C@@H](C)N(CCc1ccccc1)C[C@H](C)[C@@H](OC)CN(C)C2=O	-19.6	-24.2
C[C@H](CO)N1C[C@H](C)[C@H](CN(C)Cc2cccc(C(=O)O)c2)OCc2cnnn2CCCC1=O	1.0	3.1

Screening results deposited in PubChem BioAssay by Broad Institute.
